D2 agonist = human D2 receptor agonism in beta-arrestin assay. P14416. DiscoveRx PathHunter D2 beta-arrestin, luminescence, 90 min; 100% = 57 uM dopamine signal. activation, % (concentration not given with the values). 360,000 tested, 0.084% active. AID 624465; in the data active = activation above about 40%; inconclusive = about 15% to 40%; inactive = below about 15%; further: compound concentration not given in the record; the text of the record calls up to 30% inactive
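DiscoveRx PathHunter D2 beta-arrestin cells (2,100/well) attached overnight, then compound-stimulated 90 min at 37 C in HBSS/10 mM HEPES/0.1% Tween-20 buffer; beta-galactosidase complementation read by luminescence after 1 h at ambient temperature. Dopamine 57 uM final (EC100) as control.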
Sfp PPTase inh = inhibitors of Bacillus subtilis Sfp phosphopantetheinyl transferase | Biochemical Sfp PPTase activity, qHTS | 310,000 tested, 3.5% active | Potency, µM, without a hit: max response, negative = inhibition, usual class: inhibitors | AID 1490 | Q9F4F7; active means well fitted inhibition curve with a large enough effect; inconclusive means small, poorly fitted or top-dose-only effect, or another doubt; inactive means no such curve, though single readings can be large or run the other way;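 further: the enzyme is Sfp with the accession as filed and its product quenches rhodamine fluorescence; potency means the concentration at half of the fitted maximal effect; 0% = enzyme reaction without inhibitor and -100% = no enzyme wells; top concentration of the series not given in the record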
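Sfp 15 nM + cpd, 15 min RT; start w/ rhodamine-CoA 5 uM, BHQ-2-YbbR 12.5 uM (final); 50 mM Hepes pH 7.6, 10 mM MgCl2, 0.01% NP-40, 0.01% BSA; read 525/598 nm at 0 and 30 min.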
CtBP-E1A blk = blocks the CtBP interaction with E1A; AlphaScreen GST-E1A/His-CtBP binding, 1536-well; active compounds read low; control for the full effect not named in the record; activity change, % (no concentration beside the values); 340,000 tested, 0.49% active; AID 651724; in the data active means activity change below about -65%; inconclusive means about -30% to -65%; inactive means above about -30%; further: on the % scale 0 is the no-effect control and ±100 the full control effect
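GST-E1A and His-tagged CtBP (125 nM each as 5X stock) were preincubated with pin-transferred compound for 2 h at 37 °C in the dark, then glutathione donor and nickel acceptor beads were added for 1 h before AlphaScreen reading.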
D2 PAM = potentiates the human D2 dopamine receptor allosterically; 360,000 tested, 0.23% active; DiscoveRx D2 beta-arrestin cells, luminescence, 90 min; 100% = 57 uM dopamine signal; potentiation, % (concentration not given with the values); AID 624464; P14416; active = potentiation of 50% or more; inconclusive = 30% to 50%; inactive = 30% or less;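 further: compound concentration not given in the record; tested on top of an EC20 dose of dopamine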
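PathHunter beta-arrestin assay in DiscoveRx D2 cells. Compounds were added with an EC20 of dopamine (50 nM final) for 90 min at 37 deg C. Luminescence was read 1 h after detection reagent, with 57 uM dopamine as the EC100 control.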
TRPV1 PAM = human TRPV1 potentiation; Q8NER1; TRPV1-expressing cells, Fluo-8 calcium influx, capsaicin EC20 potentiation; host cell line not named in the record; control for the full effect not named in the record; 320,000 tested, 0.02% active; potentiation, % at 8.33 µM; active means potentiation above 80%; inconclusive means 30% to 80%; inactive means below 30%; further: 0% is about no effect
Target sequence (Q8NER1 whole entry, looked up): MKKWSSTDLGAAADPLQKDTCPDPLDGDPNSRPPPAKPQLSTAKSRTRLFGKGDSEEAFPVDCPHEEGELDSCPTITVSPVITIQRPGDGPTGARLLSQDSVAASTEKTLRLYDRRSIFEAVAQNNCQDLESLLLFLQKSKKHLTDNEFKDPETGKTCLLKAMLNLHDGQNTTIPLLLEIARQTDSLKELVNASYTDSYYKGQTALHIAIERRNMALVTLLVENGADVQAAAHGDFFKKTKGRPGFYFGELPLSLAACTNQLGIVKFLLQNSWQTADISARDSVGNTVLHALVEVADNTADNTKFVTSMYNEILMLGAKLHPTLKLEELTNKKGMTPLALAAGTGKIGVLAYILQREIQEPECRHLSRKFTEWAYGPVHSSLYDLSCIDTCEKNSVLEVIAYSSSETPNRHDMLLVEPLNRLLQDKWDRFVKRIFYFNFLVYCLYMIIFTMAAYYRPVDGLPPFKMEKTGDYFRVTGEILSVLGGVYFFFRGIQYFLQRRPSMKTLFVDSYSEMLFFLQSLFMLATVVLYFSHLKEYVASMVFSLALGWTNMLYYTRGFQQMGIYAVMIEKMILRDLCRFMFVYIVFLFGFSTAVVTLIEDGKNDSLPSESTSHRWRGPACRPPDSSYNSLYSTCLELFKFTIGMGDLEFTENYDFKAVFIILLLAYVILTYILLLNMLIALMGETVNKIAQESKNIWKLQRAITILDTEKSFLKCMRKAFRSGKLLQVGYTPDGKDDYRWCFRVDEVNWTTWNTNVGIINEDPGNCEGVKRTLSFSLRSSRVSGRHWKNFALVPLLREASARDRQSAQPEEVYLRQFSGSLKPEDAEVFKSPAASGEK
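Cells expressing TRPV1 were dye-loaded with Fluo-8 and read kinetically: 10 s baseline, 3 min after compound (agonist portion), then 2 min after EC20 capsaicin (allosteric enhancer portion). Calcium-bound dye fluorescence at 480/520 nm.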
Six1-Eya2 blk = Six1/Eya2 interaction inhibition; AlphaScreen GST-Six1/His-Eya2 binding, biochemical; active compounds read low; control for the full effect not named in the record; 360,000 tested, 0.56% active; activity change, % (test concentration not listed); in the data active = activity change below about -65%; inconclusive = about -30% to -65%; inactive = above about -30%; further: on the % scale 0 is the no-effect control and ±100 the full control effect
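GST-Six1 + His-Eya2 (5X stock: 250/500 nM); Tris pH 8.0, 300 mM NaCl, 0.05% BSA, 0.02% Tween 20; GSH donor/Ni acceptor beads; 1 h 37 °C dark; AlphaScreen readout.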
PINK1 modulator = PINK1 expression modulation; PINK1 immunofluorescence, high-content cytometry, 24 h; Potency, µM (doses to about 76.6 µM), without a hit: at the highest dose activation (PINK1 increase), actives largely listed as activators; 410,000 tested, 0.2% active; AID 624263; active = well fitted activation curve with a large enough effect; inconclusive = small, poorly fitted or top-dose-only effect; inactive = flat fitted curve, though single readings scatter; cell line not stated here;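 further: potency means the concentration at half of the fitted maximal effect; % of control where 0% means no effect; nearly all actives have a fitted effect of over 65% in size; a mitochondrial uncoupler was the plate control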
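Readout is PINK1 immunofluorescence, quantified alongside mitochondrial, cell and nuclear markers by laser-scanning microplate cytometry. Cells from a stable line were exposed to compound titrations (5 concentrations) for 24 hours, with CCCP controls.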
The depositor's hits bear a star; u = inconclusive; x = not tested or not shown; [ ] = remark or other dose. This is a random part of the collection. About 3.7% of those tested had a hit in this group.

SMILES	D2 agonist	Sfp PPTase inh	CtBP-E1A blk	D2 PAM	TRPV1 PAM	Six1-Eya2 blk	PINK1 modulator
CC(C)C[C@H](NC(=O)c1nc[nH]c1C(=O)N1CCC(C)CC1)C(=O)OC(C)(C)C	-2.6	14%	0	-4	-30	-4	1.8%
COc1ccc(N2CCN(S(=O)(=O)c3c(C(=O)N4CCOCC4)c(C)n(C)c3C)CC2)cc1	1.4	5%	4	-3	-22	-1	-0.7%
CCc1ccc([C@H]2C(C(=O)O)=C[C@@H](CC3CCCC3)N2S(=O)(=O)c2ccc(C)cc2)cc1	0.3	x	-21	0	x	-4	1.1%
CCCOc1ccc(C2C(C(=O)c3ccco3)=C(O)C(=O)N2CCCn2ccnc2)cc1OC (stereo not given)	-2.2	x	12	2	x	0	2.0%
CCOc1cc(-c2c(C#N)c(N)nc3c2CCCC3)ccc1O	-1.2	6%	-5	0	4	0	3.0%
CCOC(=O)c1sc(NCC2CCCO2)nc1C (stereo not given)	-3.1	7%	-2	-8	7	-7	0.5%
CCN(c1ccccc1)S(=O)(=O)c1ccc(OC)c(NC(=O)CN(C)C)c1	4.1	-26%	x	-10	6	-8	1.3%
O=C(O)c1cc2cc(Oc3ccccc3)ccc2[nH]1	-1.7	12%	0	-1	-9	2	-1.0%
CCc1c(C(=O)NC2CCCc3ccccc32)[nH]c(C)c1C(C)=O (stereo not given)	-0.2	8%	x	-5	-5	-13	3.8%
Cc1c(CC(=O)NCCC(=O)O)c(=O)oc2cc3oc4c(c3cc12)CCCC4	1.1	1%	1	-4	21	1	-1.1%
Cc1ccc2nc(-c3ccccn3)c(NC3CCCC3)n2c1	-4.6	5%	-73*	-12	8	u	11%
COc1cccc(C(C)NC(=O)Nc2ccccc2Cl)c1 (stereo not given)	3.2	3%	2	-3	7	0	-1.2%
CC(=O)Cc1ccccc1OCC(=O)O	0.6	6%	7	1	27	3	1.3%[38.3 µM]
CC(C)(C)C(=O)Nc1nnc(SCC(=O)NCc2ccco2)s1	-6.5	6%	4	-5	1	3	0.4%
Cc1ccc(S(=O)(=O)/C(=C/Cl)NC(=O)c2ccccc2)cc1	-2.2	10%	6	-3	3	-2	1.6%
O=C(NCc1ccc2c(c1)OCO2)c1ccc2c(c1)N(Cc1c(F)cccc1Cl)C(=O)CS2	1.6	6%	0	-22	1	19	u
COc1ccc(N2C(=O)CC(N3CCN(c4ccccc4F)CC3)C2=O)cc1 (stereo not given)	1.2	7%	6	6	1	2	2.8%[38.3 µM]
CCOC(=O)c1c(S(=O)(=O)NCC(=O)Nc2cccc(C)n2)c(C)n(C)c1C	1.8	6%	5	0	1	1	-0.3%
CCOc1ccc(C=NN2CCCCCC2)cc1OCC	-3.5	x	-13	-4	x	-1	2.0%
CN(c1ccccc1)S(=O)(=O)c1cccc(C(=O)NCCCN2CCCC2=O)c1	0.5	x	-10	-6	5	10	-5.2%
Cc1cccc(-c2nc(NCCN(C)C)c3ccccc3n2)c1	-2.3	x	0	-24	x	-4	0.6%
COC(=O)C1=C(C)N(Cc2ccc(C)cc2)C(=O)C1	-1.7	10%	0	-14	x	-1	-2.7%[38.3 µM]
O=C(CN1C(=O)NC(Cc2c[nH]c3ccccc23)C1=O)Nc1ccccc1Br (stereo not given)	-2.6	x	x	-2	3	7	1.9%
COc1ccc(/C=C2\CCCC3C2=NN(C(=O)COC(=O)CNC(=O)c2ccccc2)C3c2ccc(OC)cc2)cc1 (stereo not given)	-1.2	5%	-7	-18	0	-3	-1.0%
Cc1ccc(S(=O)(=O)N2CCCCC2)cc1NC(=O)C1CCN(C(=O)OC(C)(C)C)CC1	-2.6	x	-1	-39	x	0	1.8%

(further entries)
SMILES	D2 agonist	Sfp PPTase inh	CtBP-E1A blk	D2 PAM	TRPV1 PAM	Six1-Eya2 blk	PINK1 modulator
Cc1cc(OC(=O)c2cc([N+](=O)[O-])ccc2Cl)c([N+](=O)[O-])c(=O)[nH]1	-0.8	2%	9	-4	-15	3	0.1%
COc1ccc(CCN2CN(S(=O)(=O)c3ccc(OC)cc3)c3nc4ccccc4nc32)cc1	-3.4	9%	-2	-6	-7	-10	4.3%
C[C@H](CO)N1C[C@H](C)[C@H](CN(C)S(=O)(=O)c2ccc(Cl)cc2)OCc2ccccc2-c2c(n(C)c3ccccc23)C1=O	4.5	x	0	u	x	-6	0.8%
CCOC(=O)c1ccc(NC(=O)c2ccc(C)c(S(=O)(=O)N3CCOCC3)c2)cc1	7.4	3%	2	-2	-10	-15	3.7%
COc1cc(C(C)=O)ccc1OCc1cc(C(=O)N(C)CCC2CCCCO2)no1 (stereo not given)	5.4	17%	x	-6	-1	0	3.3%
COc1ccc([C@H]2CC(=O)C=C(c3ccccc3OC)C2)cc1OC	-3.6	x	-3	-1	-18	-7	3.8%
COc1ccc(-c2nn(-c3ccccc3)cc2C(=O)O)cc1N	-4.6	28%	-8	-2	0	3	2.3%
Cc1ccc(C)c(NC(=S)N2CCC(NC(=O)C3CCCCC3)CC2)c1	-0.4	15%	0	-10	1	4	2.1%
Cn1c(=O)c2c(nc(OCc3cccnc3)n2Cc2c(F)cccc2Cl)n(C)c1=O	-2.0	13%	0	-9	-59	-3	-1.3%
CCOC(=O)C1CCN(c2nc(C)cc(C)c2C#N)CC1	5.9	8%	-2	3	-21	12	0.4%
CC(/C=C\c1ccccc1)=C/C(=O)O	-0.8	9%	0	-10	-10	2	-1.1%
COc1cccc(C2=CC(=O)C(C(C)(C)C)N2C(C)(C)C)c1 (stereo not given)	0.1	x	-1	x	x	0	7.9%
O=C(NC1CCCN(CCc2ccccc2)C1)c1c(F)cccc1F (stereo not given)	-6.4	22%	x	-47	-6	3	-1.8%
CC(=O)c1cccc(NC(=O)CCc2nnc3ccc(N4CCN(C)CC4)nn23)c1	3.5	30%	x	-7	5	5	-0.5%
C[C@H]1CN([C@@H](C)CO)C(=O)c2c(c3ccccc3n2C)-c2ccccc2CO[C@H]1CN(C)Cc1cccc(F)c1	-1.3	x	4	8	x	-6	11%
C=CCc1cc(OC)ccc1OCCOCCC(C(=O)OCC)C(=O)OCC	-2.5	23%	23	-42	-17	22	5.5%
CC1CCCCN1CCCNC(=O)C1CCN(c2nc3ccccc3o2)CC1 (stereo not given)	-2.4	23%	3	-4	1	1	-0.1%
COc1ccc2[nH]c(C(=O)N(C)c3ccc(F)cc3F)cc2c1	1.7	13%	-5	-8	5	2	1.5%
CN(C)S(=O)(=O)NCCNc1ccc(C(F)(F)F)cc1[N+](=O)[O-]	12	9%	x	-11	20	-9	-0.1%
S=c1[nH]nc(-c2ccc(Cl)cc2)n1-c1ccc(Cl)cc1	7.8	23%	-16	-13	3	7	0.2%
CCOC(=O)c1[nH]ncc1CN1CCCC(C(=O)c2cccc3ccccc23)C1 (stereo not given)	-1.6	1%	-7	-3	-5	-2	0.6%
COc1ccc2[nH]c(=O)c(CN(CC3CCCO3)C(=O)Nc3ccccc3)cc2c1 (stereo not given)	-0.4	7%	-1	1	-29	-4	-0.2%
O=C(CSc1nc2ccccc2c(=O)n1Cc1ccco1)NCc1ccco1	-3.5	u	9	-19	15	-15	-2.3%[38.3 µM]
O=C(Nc1ccc(F)c(Cl)c1)N1CCCC1	-1.8	15%	0	-5	-15	3	0.5%
Cc1ccc(S(=O)(=O)NCCC(=O)NCC(=O)Nc2c(C)cccc2C)cc1C	-0.2	x	0	-1	5	3	-3.1%

Continuation.
SMILES	D2 agonist	Sfp PPTase inh	CtBP-E1A blk	D2 PAM	TRPV1 PAM	Six1-Eya2 blk	PINK1 modulator
CC1(C(=O)OCC(=O)Nc2ccc(C(N)=O)cc2)CC1(Cl)Cl (stereo not given)	-5.3	11%	7	-6	-12	2	2.3%
COc1ncnc2c1sc1nc(-c3ccccc3)c3c(c12)CCCC3	-4.1	u	0	0	2	9	7.8%
COc1cccc(C(c2sc3ncnn3c2O)N2CC(C)OC(C)C2)c1 (stereo not given)	-4.2	-13%	4	-6	22	-1	4.4%
Cc1ccc(O)c(CCc2ccccc2)n1	1.5	-10%	-1	4	-1	-1	1.9%
CCn1c(=O)c2c3c(sc2n(C)c1=O)CCC3	1.0	3%	-10	-11	12	-1	-4.6%[38.3 µM]
COC(=O)[C@]12CCCCC=C1N(Cc1ccc(Cl)cc1Cl)C(=O)[C@H](CC(=O)N1CCCC1)C2	x	x	1	x	x	-12	-0.3%
O=S(=O)(Nc1ccc(Cl)cn1)c1ccc(F)cc1	1.2	11%	-2	2	8	9	0.9%
O=C(O)CCn1c(C(=O)O)cc2sccc21	-0.5	7%	1	8	8	-1	-2.7%
Cc1ccccc1Cn1c(C(=O)OC(C)C)cc2c1ccn2C	-3.7	-7%	-22	-9	-11	u	1.7%
Cc1ccc(NC(=O)C2C3CC4OC(=O)C2C4C3)cc1Cl (stereo not given)	-2.6	-6%	0	-6	0	23	0.2%
Cc1cc(C)n(-c2ccc(S(N)(=O)=O)cc2[N+](=O)[O-])n1	1.0	1%	1	2	-1	3	0.2%
ON/C=N/C(=S)Nc1ncc(C(F)(F)F)cc1Cl	5.0	-2%	u	3	8	-18	0.3%
COc1ccc2[nH]cc(CCN3C(=O)c4ccc(C(=O)O)cc4C3=O)c2c1	0.0	20%	-5	-7	15	-10	-1.5%
CC1(C)CC(=O)C=C(NCC2CCCO2)C1 (stereo not given)	0.1	-11%	5	-4	-1	2	-2.0%[38.3 µM]
C/C(CC(=O)Nc1ccc2c(c1)OCCO2)=N\NC(=O)COc1cccc(C)c1	-3.6	5%	4	-10	4	-7	0.5%
COc1cccc(/C=N/n2cnc3ccccc32)c1OC	-2.2	11%	0	5	-13	0	-0.8%
O=S(=O)(Nc1ccc2cn[nH]c2c1)c1ccc(Cl)cc1	-2.4	10%	x	0	-18	-2	3.0%
CCn1c(-c2ccccc2)c[nH]c1=S	-1.2	-23%	-1	-15	6	1	-1.0%

Individual results from above:
Entry for `CC(=O)c1cccc(NC(=O)CCc2nnc3ccc(N4CCN(C)CC4)nn23)c1` under TRPV1 PAM: 5
Entry for `CCCOc1ccc(C2C(C(=O)c3ccco3)=C(O)C(=O)N2CCCn2ccnc2)cc1OC` (stereo not given) under D2 agonist: -2.2

High-throughput results deposited in PubChem by National Center for Advancing Translational Sciences (NCATS).
